Assay outcomes as filed in PubChem BioAssay.
TAR Tat displ – HIV-1 TAR-Tat binding disruption | HIV-1 TAR RNA, Tat peptide displacement FRET; stronger effect = higher value | hit rate 0.6% among 100,000 | z-score (test concentration not listed);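 further: score is relative to mean and SD of negative controls; some compounds called inactive have numbers as strong as hits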
CDC25B CDK2 inh – human CDC25B-CDK2/CyclinA binding inhibition; P30305+P24941; HTRF CDC25B-CDK2/CyclinA binding, anti-His/anti-Flag; stronger effect = higher value; z-score (no concentration beside the values); hit rate 0.72% among 94,000; AID 1259370;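 further: score is relative to mean and SD of negative controls; strong numbers were not always called active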
An asterisk follows results filed as active; · = not tested or not shown.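 How the source made its calls: active means z-score from 3 up in half or more of its runs; inactive means the rest.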

structure,TAR Tat displ,CDC25B CDK2 inh
O=C(C1CC(=O)N(c2ccccc2)C1)N1CCN(c2ncnc3c2nnn3-c2ccccc2)CC1 (configuration not stated),0.37,·
O=C(O)CCCC(=O)Nc1ccc(S(=O)(=O)Nc2nccs2)cc1,-1,-0.9
CCCCCn1c(CN2CCN(c3ccccc3)CC2)nc2c1c(=O)n(C)c(=O)n2C,-0.21,-1.6
COC(=O)c1ccc(Cn2nc(-c3cc(C)ccc3C)ccc2=O)cc1,2.3,0.33
CC(C)NC(=S)NNC(=O)C1CC2CCC1O2 (configuration not stated),·,-2.1
Cc1ccc(C)c(C(NC(=O)C2CC2)c2cccnc2)c1 (configuration not stated),-0.02,-2.4
CC(C)(C)C(=O)Cn1c(=O)n(Cc2cccs2)c(=O)c2cc(Cl)ccc21,-0.83,-0.88
c1cncc(CNCc2cccn2-c2nnc(N3CCOCC3)s2)c1,0.63,·
Clc1ccc(N2CCN(c3nn4nnnc4c4ccccc34)CC2)cc1,0.16,-2.7
CCc1nnc(SCC(=O)N(C)C2CCCCC2)c2cc3sccc3n12,3.4,·
O=C(O)Cc1csc(Nc2ccccc2)n1,1,-2
Cc1ccc(Cn2c(C)c(CNCC3CCCO3)c(C(=O)O)c2C)cc1 (configuration not stated),-1,-0.15
Cc1nc2scc(C)n2c(=O)c1S(=O)(=O)NCc1ccccn1,0.72,-0.95
O=C(NCc1ccc2c(c1)OCO2)c1cnn2c3c(cnc12)CCCC3,-0.71,·
Cc1ccsc1CN1CCc2nc(Nc3ccc4c(c3)OCCO4)ncc2C1,0.7,·
CCN1CCN(C(=O)C(CC(C)C)N2Cc3ccccc3C2=O)CC1 (configuration not stated),0.6,·
CSCCC(NS(=O)(=O)c1ccc2c(c1)oc(=O)n2C)C(=O)NC1CCC(C)CC1 (configuration not stated),0.77,0.12
CC1=C(C(=O)OCCOC(C)C)C(c2cccc(Cl)c2)C2=C(CC(c3cccs3)CC2=O)N1 (configuration not stated),0.45,-0.93
COc1ccc(C(c2c[nH]c3ccccc23)c2c[nH]c3ccccc23)cc1OC,-5.5,-1.3
COC(=O)c1cc(OC)c(OC)cc1NC(=O)CN1CCOCC1,·,-1.4
COc1cc(/C=C2\COC/C(=C\c3ccc(O)c(OC)c3)C2=O)ccc1O,·,-1.1
COc1cc2c(cc1OC)C(Nc1nc(-c3ccccc3)cs1)=NC(C)(C)C2,-1.9,-7.8
COc1ccccc1/C=C1\CCCC2=C1Nc1nnnn1C2c1ccccc1OC (configuration not stated),·,-0.42
CC(=O)N1CCc2cc(S(=O)(=O)CCC(=O)NC3CCCCC3)ccc21,·,-2
Cc1sc2ncnc(N3CCN(Cc4ccc(Cl)cc4)CC3)c2c1C,1,·
O=C(NNC1=NCCCN1)c1cc(OCC(F)(F)F)nc(OCC(F)(F)F)c1,·,-4.5
CSc1nc2nc(-c3ccccc3)cc(=O)n2[nH]1,-2.5,1.5
Cc1[nH]ccc2c1[nH]c1cc(=O)ccc12,22*,·
C#CCN1C(=O)C(O)(CC(=O)c2ccc(CC)cc2)c2cc(Br)ccc21 (configuration not stated),·,-1
COc1cccc(C2c3c(-c4ccccc4O)n[nH]c3C(=O)N2CCc2ccccc2)c1 (configuration not stated),0.79,-1.7
CC(C)n1c(Cl)nc2c1c(=O)n(C)c(=O)n2C,·,-1.8
O=C1CC(C(=O)Nc2cccc(Cl)c2)n2c(nc3ccccc32)N1 (configuration not stated),-1.8,-1.4
O=C(c1ccccc1)c1ccc2nc(NCCCN3CCOCC3)c3nncn3c2c1,-0.58,·
COC(=O)c1ccc(C2c3c(oc4ccccc4c3=O)C(=O)N2c2ccc(C)cn2)cc1 (configuration not stated),-0.63,0.07
Clc1ccc(Cn2ncc3c(NCCN4CCOCC4)ncnc32)cc1,0.86,·
Clc1ccc2nc(NCCN3CCOCC3)c3nncn3c2c1,0.5,-1.4
O=C(Nc1ccc2c(c1)OCO2)c1cnn2c(C(F)(F)F)cc(-c3ccco3)nc12,2.3,1.9
NC(N)=NCCC[C@H](NC(=O)c1ccccc1)C(=O)Nc1ccc([N+](=O)[O-])cc1,·,-0.32
CCN(CC)c1ccc2nnc(CCC(=O)N3CCOCC3)n2n1,1,·
Cc1cc(C)c(CSCCNC(=O)Nc2ccc(Cl)cc2)c(C)c1,·,-1.4
O=C(NCCCSC1CCCCC1)Nc1ccccc1,1.1,·
Fc1ccc(-c2noc3ncnc(Nc4ccccc4)c23)cc1,-1.3,·
CCC1CCCCN1CCCNC(=O)Nc1c[nH]c2ccc(C)cc2c1=O (configuration not stated),2,-0.96
O=C(CN1C(=O)C(=O)c2ccccc21)Nc1ccc(Br)cc1,0.76,-1.5
CCOC(=O)N1CCN(c2nnc(Cc3cccnc3)c3ccccc23)CC1,-0.2,-0.49

Brought forward from above: five entries, then new ones.
structure,TAR Tat displ,CDC25B CDK2 inh
O=C(NCCCSC1CCCCC1)Nc1ccccc1,1.1,·
Fc1ccc(-c2noc3ncnc(Nc4ccccc4)c23)cc1,-1.3,·
CCC1CCCCN1CCCNC(=O)Nc1c[nH]c2ccc(C)cc2c1=O (configuration not stated),2,-0.96
O=C(CN1C(=O)C(=O)c2ccccc21)Nc1ccc(Br)cc1,0.76,-1.5
CCOC(=O)N1CCN(c2nnc(Cc3cccnc3)c3ccccc23)CC1,-0.2,-0.49
O=S(=O)(NCC1CCN(Cc2ccc(F)cc2)CC1)c1cnc[nH]1,0.13,·
Cc1cccc(N2C(=O)c3cccc4cccc(c34)C2=O)n1,-0.73,-1.6
Cc1ccc(NC(=O)c2cnc3scc(C)n3c2=O)cc1F,·,-0.62
Cn1c2c(c(=O)n(C)c1=O)CN(CCN1CCNCC1)CN2,·,5.4
Cc1ccc(-c2cc3ncc(C(=O)c4cc(F)ccc4O)cn3n2)cc1,-0.76,2.1
Cc1c(C(=O)N2CCC(c3nc4ccccc4s3)CC2)oc2ccccc12,2.5,1.5
CCOc1ccc(-c2nc3sc(CC(C)C)nn3c2C)cc1,2.5,-1.2
O=C(CCS(=O)(=O)c1ccc(F)cc1)Nc1nc(-c2cccs2)cs1,1.6,·
COc1cc(-c2nnc(NC(=O)c3ccc(S(=O)(=O)N4CCCC4)cc3)o2)cc(OC)c1OC,·,0.14
O=[N+]([O-])c1ccc(CNc2nc(NCc3cccc(C(F)(F)F)c3)nc3nc[nH]c23)cc1,·,-1.2
CN1CCN(CCCNC(=O)Nc2cccc3c2CCCC3)CC1,-0.72,-1
COCCN[C@H]1CS(=O)(=O)C[C@@H]1S(=O)(=O)c1ccc(F)c(C)c1,1.5,-0.36
Cc1c(N)cccc1-c1nc2cc(Cl)ccc2o1,0.55,-1.8
Cc1nn(-c2nncc(-c3ccc(Cl)cc3)n2)c2c1C(c1cc(F)ccc1F)CC(=O)N2 (configuration not stated),0.97,-0.63
COC(=O)CSC1=C(C#N)C(c2ccc(C)o2)CC(=O)N1 (configuration not stated),0.12,0.33
CC(C)(CO)NCc1cccs1,0.82,0.66
Cc1cccc(NC(=O)c2cc3ccccn3n2)n1,0.22,·
CCOC(=O)c1c(NC(=O)COc2ccccc2Cl)sc2c1CCC2,-0.43,-0.87
CC1(C)C(=O)NN(c2ccc(C(=O)O)cc2)C1=O,1.7,-1.3
CCS(=O)(=O)n1nc(-c2ccc(OC)cc2OC)cc1N,·,-0.49
COC(=O)c1ccc(C2Nc3ccccc3S(=O)(=O)N2Cc2ccccc2)cc1 (configuration not stated),·,-1.4
Cc1cccn2c(=O)c3cc(C#N)c(=O)n(-c4ccc(Br)cc4)c3nc12,1.3,-2.4
O=C1c2ccccc2C2(c3ccccc3)N1CCN2C(=O)C(Cl)(Cl)Cl (configuration not stated),·,-1.4
Clc1cccc(-c2nc(-c3ccccn3)no2)c1,·,1.6
O=S(=O)(NC1CCCCC1)c1ccc(-c2cnc(C3CC3)o2)cc1,0.92,·
Cc1cc(C)nc(Nc2ncc(O)n2-c2ccc(Cl)cc2)n1,·,1.1
COC(=O)c1cc(S(=O)(=O)NCCN2CCc3ccccc3C2)cn1C,0.52,·
Cc1onc(-c2ccccc2)c1CNS(=O)(=O)c1ccc(-c2ccccn2)s1,·,-5.9
Clc1ccc2nc(NC3=NCN(CCN4CCOCC4)CN3)nc(-c3ccccc3)c2c1,0.22,-1.3
Cc1ccc(S(=O)(=O)c2c(C)nn(C(C)(C)C)c2OC(=O)CCC2CCCC2)cc1,-1,-2.7
COc1cc(OC)c(NC(=O)CSc2nc3ncccc3[nH]2)cc1Cl,0.16,·
c1ccc(CNc2ncnc3c2c(-c2ccccc2)cn3-c2ccccc2)cc1,-0.48,·
Cc1ccc(C)c(NS(=O)(=O)c2cc3c4c(c2)CCN4C(=O)CC3)c1,1.9,·
CCOC(=O)C1CCCCN1S(=O)(=O)c1ccc2c(c1)CC(C)N2C(=O)C1CC1 (configuration not stated),1.3,·
CN(C)c1ccc(C2CC(=O)NC(NC(=O)c3ccc(Br)cc3)=N2)cc1 (configuration not stated),-1.5,-3.2
CN(C)C(=O)c1ccc2c(c1)nnn2C1CCNCC1,0.6,·
CCOc1ccc(/C=C2\N=C(SC)SC2=O)cc1,0.68,-1.4
Cc1ccc(C)c(Nc2c(-c3ccc(O)cc3)nc3sccn23)c1,-1.2,0.49
COC(=O)c1cc(S(=O)(=O)Nc2cccc(F)c2)cn1C,0.59,-0.41
Cc1cc(NC(=O)c2cc3c(=O)n(C)c4ccccc4c3n2C)no1,0.66,-1.1
CCCCSc1nnc2ccc3ccccc3n12,0.47,0.03
Cc1cc(C)nc(N2N=C(C(C)(C)C)CC2=O)n1,-0.46,-1.3
Cc1ccc(C2NC(=O)c3n[nH]c(-c4cccs4)c32)cc1 (configuration not stated),0.23,-0.03
CCc1cc2c(cc(C(=O)NCc3cccs3)n2C)s1,1,-0.45
CCC(C)Nc1oc(-c2ccc(COc3ccc(C)cc3)o2)nc1C#N (configuration not stated),0.68,-0.43

The final two entries of the part before are carried over, then new ones follow:
structure,TAR Tat displ,CDC25B CDK2 inh
CCc1cc2c(cc(C(=O)NCc3cccs3)n2C)s1,1,-0.45
CCC(C)Nc1oc(-c2ccc(COc3ccc(C)cc3)o2)nc1C#N (configuration not stated),0.68,-0.43
Cc1csc2ncc(C(=O)NCCN(C)C)c(=O)n12,1.1,·
CN(C)CCCNc1cc(N2CCN(C3CCCCC3)CC2)c2noc3c2c1C(=O)c1ccccc1-3,8.7*,-1.7
CC(=O)N1N=C(CSc2nc(C)cc(C)n2)OC1/C(C)=C/c1ccccc1 (configuration not stated),4.2*,·
O=C(NCc1ccco1)NC1(C(F)(F)F)Oc2ccccc2O1,·,0.29
NCCCCCc1nnc(SCc2ccc(F)cc2)o1,-0.32,-0.55
CCCSc1nc2c(c(=O)[nH]1)C(c1ccc(F)cc1)C(C(=O)OC)=C(C)N2 (configuration not stated),1.2,-1.8
c1ccc(CN2C3=NCCN3c3ccccc32)cc1,·,-0.74
COC(=O)C1=C(C)NC2=C(C(=O)CC(c3ccc(OC)c(OC)c3)C2)C1c1ccccc1OC(C)C (configuration not stated),0.11,-0.28
COCCn1c2c(c(=O)[nH]c1=O)C(c1cccc(OC)c1)C1=C(N2)c2ccccc2C1=O (configuration not stated),0.32,-3.2
CC(=O)Nc1cc(C2CC2)[nH]n1,·,-0.26
c1ccc(CN2CCc3nc(N4CCN(c5ccccn5)CC4)ncc3C2)nc1,-0.75,·
CCOCCOC(=O)C1=C(C)NC2=C(C(=O)CC(C)(C)C2)C1c1ccc(OC)c(Br)c1 (configuration not stated),0.12,-1.1
O=C(CN1CCCCCC1)N1CCCc2c1c(=O)oc1ccc(O)cc21,·,-0.91
O=S(=O)(c1cccc2nsnc12)N1CC(OCc2ccc(Cl)cc2)C1,-0.42,·
COc1ccc(N2CCN(Cc3csc(C)c3)CC2)cc1,1.4,·
Cc1cc(C)nc(-n2nc(C)c3c(=O)oc(C)cc32)n1,-1.3,-3
O=c1[nH]c(Nc2ccc(Br)cc2)nnc1Cc1ccc(Cl)cc1,1.6,-0.48
O=C(NNC(=S)Nc1cccc(Cl)c1)c1ccccc1-n1cccc1,·,-2.9
O=C1c2ccccc2C(Nc2ccc(-c3nc4ccccc4[nH]3)cc2)N1Cc1ccco1 (configuration not stated),0.26,-0.56
CCOC(=O)C1CCN([C@H]2CS(=O)(=O)C[C@@H]2S(=O)(=O)c2cccs2)CC1,0.41,1.3
CCn1c(C)nc2cc(C)c(C)cc21,1.9,-2.1
COc1cc2c(cc1OC)C(Cc1ccc(O)cc1)N(C)CC2 (configuration not stated),·,-1.7
COc1ccc(NC(=O)CSc2nncn3c2cc2oc(C)cc23)c(OC)c1,1.5,·
CCn1cc2nc(SCc3ccccc3)n(Cc3ccc(C)cc3)c(=O)c2n1,-0.03,·

Rows are unselected; any-hit rate near 0.94%.
